# Assay outcomes from PubChem BioAssay.
# ugtP null kill – growth inhibition of ugtP-null S. aureus, primary screen, RN4220 ugtP deletion, OD600. hit rate 0.54% among 330,000. 16 h; some inactives read as strong as hits. growth inhibition, % (no concentration beside the values);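 active means z-score under -3 and OD600 up to 0.15 on both plates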;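 further: plate controls were untreated wells for no effect and antibiotic for full effect; wells of about 80 µL received 100 nL stock; the first replicate is given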
# PrP 5UTR inh – inhibition of PrP 5' UTR reporter expression; cell-based PrP 5' UTR mRNA reporter, plate reader; inhibition, % (concentration not given with the values); hit rate 0.35% among 340,000;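 active means every replicate at 50% or more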;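 further: 0 = median of the neutral control wells; tested in H4 reporter cells; numbers are from one replicate; inactives centre near -14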
# BJeLR viability – MLPCN primary cell-based screen for lethality selective to Ras in HRASV12 cells; BJeLR (HRASV12) viability, CellTiter-Glo ATP luminescence, 48 h; reference of the scale not given here; inhibition, % (no concentration beside the values); hit rate 0.17% among 300,000;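 active means replicate mean above 50%; inconclusive means above 50% but judged a plate artefact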;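 further: 50 nL library stock added to about 25 µL; numbers are from one replicate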
# Mtb hypoxia rep – PubChem AID 1159583; fluorescence inhibition, % (no concentration beside the values); hit rate 0.1% among 300,000; M. tuberculosis hypoxia-regulated fluorescent reporter, fluorescence;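 active means 35 to 45% if threefold the growth effect, above 45% if 1.5-fold the growth effect; inactive means the rest, general growth blockers included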;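 further: wells of about 50 µL received 100 nL stock; 0% = vehicle wells and 100% = reference inhibitor wells; whole bacteria with a GFP reporter of the hypoxia response; strong numbers were not always called active; many hits fall short of the cut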
# RN4220 kill – growth inhibition of S. aureus RN4220, primary screen, OD600. 16 h. inhibition, % (test concentration not listed). hit rate 0.33% among 330,000. AID 1259311, 2017;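 active means z-score of -3 or lower and OD600 up to 0.18 on both plates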;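 further: plate controls were untreated cells for no effect and reference antibiotic for full effect; stock transfer was 100 nL into about 80 µL; one replicate is shown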
# Bead autofluor – compound fluorescence in toxin protease inhibitor counterscreen | compound autofluorescence counterscreen, microsphere flow cytometry; hits give high values | fluorescence intensity (no concentration beside the values) | hit rate 3.1% among 360,000;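 active means at least 3 SD above the mean of all compounds, about 16000 in these data; inconclusive means too few beads counted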;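 further: 100 nL of 1 mM stock went into each well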
# Mtb hypoxia rep growth – recorded beside Mtb hypoxia rep, whose call it bears; growth inhibition, %; measured here: M. tuberculosis growth (absorbance);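 0% = vehicle and 100% = reference antibiotic; read after six days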
# Numbers without * were called inactive; ? = inconclusive; / = not tested or not shown.
SMILES,ugtP null kill,PrP 5UTR inh,BJeLR viability,Mtb hypoxia rep,Mtb hypoxia rep growth,RN4220 kill,Bead autofluor
CCCCC1CCCO[C@@](C(=O)NCc2ccccn2)(C(F)(F)F)C1 (some centres not stated),0,/,/,-8,-9,3.8,/
Cn1cccc1/C=N/n1c(-c2ccco2)n[nH]c1=S,/,-12,-6,/,/,/,2291
Cc1cccc(C)c1NC(=O)CNC(=O)c1ccccc1,1,-22,-5,15,6,3.0,3935
CCc1nc2ccccc2c(C(=O)OCCN2C(=O)c3ccccc3C2=O)c1C,-4,-5,-6,-2,11,0.7,3699
O=C(c1cccnc1)N1CCN(Cc2cccc(F)c2)CC1,3,-26,3,0,14,12,3287
Cc1ccc(SCC(=O)Nc2ccc(N3CCOCC3)cc2)cc1C,7,-15,/,9,4,5.5,2853
c1cnc(Nc2nc(-c3ccc4ccccc4c3)cs2)nc1,-6,-167,1,3,3,2.3,8719
COc1cccc(CNC(=O)C2=C(C)C(=O)OC23CCC(C)CC3)c1 (configuration not stated),6,7,0,-2,1,-3.1,3436
O=C(CSc1nc2ccccc2s1)N1CCCCC1,-2,-78,-3,18,25,6.8,10471
COc1ccc(C2CC(c3ccc(OC)cc3)n3nc(NC(=O)c4cccs4)nc3N2)cc1 (configuration not stated),-17,/,-1,4,-1,1.9,12837
COc1cc(C)c(Cl)cc1S(=O)(=O)n1cnc2ccccc21,-21,-13,-3,7,2,0.4,8386
Brc1ccc(-c2noc(-c3ccccc3)n2)o1,10,-74,-5,2,4,4.8,4610
CCn1cc(C(=O)NCC2CCCO2)c(=O)c2cc(S(=O)(=O)N(C)C)ccc21 (configuration not stated),6,-5,2,/,/,0.3,4414
N#Cc1ccc(C(=O)OCC(=O)Nc2cccc(S(=O)(=O)N3CCCCC3)c2)cc1,2,-9,/,6,-2,0.3,8311
COc1ccc(C(=O)N2CCC(n3nccc3NC(=O)C3CC3)CC2)cc1F,5,-21,11,-2,5,1.2,5511
COCc1cc(C)nc(OCC(=O)N/N=C/c2ccc(O)cc2)c1C#N,/,-7,-10,/,/,/,10545
O=S1(=O)CCOC2Cc3ccccc3C2N1Cc1ccccc1 (configuration not stated),2,/,/,-2,5,5.6,/
Cc1c(Cl)c([N+](=O)[O-])nn1CCCC(=O)Nc1cccc(Cl)c1Cl,-14,-17,-14,4,4,8.6,9894
N#CCCN(Cc1ccccc1)C(=O)c1nccnc1C(=O)O,-2,-14,-2,12,-1,1.3,4038
Cc1cccc(Cc2ccc(Cl)nn2)c1,3,-17,7,23,20,2.9,4260

# Reprinted at random: two compounds from above.
SMILES,ugtP null kill,PrP 5UTR inh,BJeLR viability,Mtb hypoxia rep,Mtb hypoxia rep growth,RN4220 kill,Bead autofluor
COc1ccc(C2CC(c3ccc(OC)cc3)n3nc(NC(=O)c4cccs4)nc3N2)cc1 (configuration not stated),-17,/,-1,4,-1,1.9,12837
Cc1c(Cl)c([N+](=O)[O-])nn1CCCC(=O)Nc1cccc(Cl)c1Cl,-14,-17,-14,4,4,8.6,9894

# The listing picks up, starting six compounds before the break.
SMILES,ugtP null kill,PrP 5UTR inh,BJeLR viability,Mtb hypoxia rep,Mtb hypoxia rep growth,RN4220 kill,Bead autofluor
COc1ccc(C(=O)N2CCC(n3nccc3NC(=O)C3CC3)CC2)cc1F,5,-21,11,-2,5,1.2,5511
COCc1cc(C)nc(OCC(=O)N/N=C/c2ccc(O)cc2)c1C#N,/,-7,-10,/,/,/,10545
O=S1(=O)CCOC2Cc3ccccc3C2N1Cc1ccccc1 (configuration not stated),2,/,/,-2,5,5.6,/
Cc1c(Cl)c([N+](=O)[O-])nn1CCCC(=O)Nc1cccc(Cl)c1Cl,-14,-17,-14,4,4,8.6,9894
N#CCCN(Cc1ccccc1)C(=O)c1nccnc1C(=O)O,-2,-14,-2,12,-1,1.3,4038
Cc1cccc(Cc2ccc(Cl)nn2)c1,3,-17,7,23,20,2.9,4260
COc1ccc(CCNC(=O)Cn2ccc3cc(S(=O)(=O)N4CCCC4)ccc32)cc1OC,/,-11,-3,/,/,/,5219
C=CCNc1nc(-c2ccc(O)c(C(N)=O)c2)cs1,-6,-15,1,/,/,1.3,2711
CCOc1ccc(OCCCCn2ccnc2)cc1,-2,-30,-9,3,11,-3.8,2650
Cc1cc(C(=O)CSc2nncs2)c(C)n1-c1c(C)n(C)n(-c2ccccc2)c1=O,-3,-19,-1,-6,6,1.6,6661
COc1ccc(C(=O)CSc2nnc(-c3ccc(C)cc3)o2)cc1,3,-30,4,6,-8,11,?
Cc1ccc2[nH]c(=O)c(CN(CCCN3CCOCC3)C(=O)Nc3cccc(Cl)c3)cc2c1,/,-19,2,/,/,/,2610
COc1ccccc1C(=O)N(Cc1ccccc1)c1ccc(C)cc1,3,-11,-2,7,9,3.2,6159
CCOc1ccc(CN(C)C(=O)CN2C(=O)NC3(CCCc4ccccc43)C2=O)cc1 (configuration not stated),3,-11,/,6,10,0.4,3670
COc1ccc(NS(=O)(=O)c2cc(C)ccc2C)cc1,0,-11,10,/,/,5.0,3366
Cn1cccc1Cc1nnc(SCC(=O)NCC2CCCO2)n1CCc1ccccc1 (configuration not stated),4,-24,10,3,0,5.9,22577*
Cc1ccc(C)n1CCN1CCN(S(=O)(=O)c2ccc(F)cc2F)CC1,3,-27,-5,-3,6,2.3,4740
COc1ccccc1NC(=O)c1ccc(Cl)c(S(=O)(=O)NCc2ccco2)c1,0,-4,/,10,4,0.6,6061
CCC(C)(C(=O)NC1CCCC1)N(C(=O)CC1NC(=O)NC1=O)c1c(C)n(C)n(-c2ccccc2)c1=O (configuration not stated),14,-11,-1,1,2,4.1,3845
O=C(c1ccc(F)cc1F)N1CCC(N2CCC(C(=O)N3CCOCC3)CC2)CC1,0,-19,-2,-3,-9,-1.4,6270
CCOc1ccc(N2CC(C(=O)NCC(=O)Nc3ccc(F)c(F)c3F)CC2=O)cc1 (configuration not stated),-4,/,/,8,4,1.3,4446
COc1cc(/C=N/NC(=O)c2ccc(F)cc2)ccc1OC(=O)c1ccco1,/,-45,0,/,/,/,1936
O=C(NCc1ccccc1)N1CCC(CO)(Cc2cccc(F)c2)CC1,12,-4,0,8,7,2.7,4546
COc1cc2oc3ccccc3c2cc1N(CC(=O)N(C)C)S(=O)(=O)c1ccccc1,-1,-21,-2,/,/,-3.3,4370
CC(C)CCNC(=O)c1cc(S(=O)(=O)N2CCc3ccccc32)cn1C,2,-13,2,0,4,3.3,5338
COc1ccc([N+](=O)[O-])cc1NC(=O)C(C)OC(=O)c1cccnc1 (configuration not stated),5,-16,4,12,0,0.2,2549

# Compound profiles, as listed above.
# COc1ccc(C(=O)N2CCC(n3nccc3NC(=O)C3CC3)CC2)cc1F is listed as ugtP null kill = 5; PrP 5UTR inh = -21; BJeLR viability = 11; Mtb hypoxia rep = -2; Mtb hypoxia rep growth = 5; RN4220 kill = 1.2; Bead autofluor = 5511
# C=CCNc1nc(-c2ccc(O)c(C(N)=O)c2)cs1 is listed as ugtP null kill = -6; PrP 5UTR inh = -15; BJeLR viability = 1; Mtb hypoxia rep = /; Mtb hypoxia rep growth = /; RN4220 kill = 1.3; Bead autofluor = 2711

# Continued:
SMILES,ugtP null kill,PrP 5UTR inh,BJeLR viability,Mtb hypoxia rep,Mtb hypoxia rep growth,RN4220 kill,Bead autofluor
COc1ccccc1CN(C)C(=O)c1ccc(S(=O)(=O)NCc2ccco2)cc1,4,-9,/,-2,2,2.0,8518
COc1ccc(/C(N)=N/OC(=O)c2cccc([N+](=O)[O-])c2C)cc1OC,/,-30,3,/,/,/,3297
O=C(N/N=C/c1ccncc1)c1cc2ccccc2cc1O,/,-18,-1,/,/,/,?
N#CC1(NC(=O)COc2ccc(C(N)=O)cc2)CCCC1,5,-23,/,10,-1,0.6,6888
COc1ccc(N2C(=O)C(C)(C)C2c2c(O)ccc3ccccc23)cc1 (configuration not stated),6,-52,2,5,5,20,3282
Cn1c(=O)[nH]c(=O)c2c1nc(N1CCN(Cc3ccccc3)CC1)n2CCSc1ncccn1,-3,-18,-23,2,12,-14,4502
COc1ccc2c(c1)CCc1c-2n[nH]c1C(=O)NCCC(C)C,-15,-39,-2,-3,-2,-8.3,2862
Cc1c(C)c2cc(Cl)c(O)c(CN3CCCC(C)C3)c2oc1=O (configuration not stated),0,3,-1,4,10,-0.4,22975*
Cc1occc1C(=O)NCCc1cccc(Cl)c1,5,-39,-7,/,/,-0.1,2754
Cc1cccn2c(=O)c(/C=C(\C#N)S(=O)(=O)c3ccc(Cl)cc3)c(N3CCC(C(N)=O)CC3)nc12,0,-17,0,11,3,3.2,5336
CC1CCCN(c2ccc([N+](=O)[O-])cc2C(=O)c2ccccc2)C1 (configuration not stated),87*,61*,58*,12,5,-2.1,2112
O=C(Nc1cccc(S(=O)(=O)NC2=NCCC2)c1)c1ccccc1F,12,/,/,8,-1,5.6,/
COc1ccc(C=NOCC(=O)NC(c2ccccc2)c2ccccc2)c(OC)c1,-7,/,/,5,3,0.4,/
Cc1oc2nc(SCC(=O)Nc3ccc(S(N)(=O)=O)cc3)nc(NC(=O)c3ccccc3)c2c1C,5,-2,-1,-12,-5,1.1,10046
CSc1cnnc2ccccc12,-2,14,/,13,8,-0.8,2873
COc1cccc(CCNS(=O)(=O)CCNC(=O)c2cccc(OC)c2)c1,2,-15,-7,1,7,0.7,5595
Cc1ccc(N2CCN(N=Cc3cccnc3)CC2)cc1,1,/,/,-12,11,2.5,/
O=C(COc1ccc(Br)cc1)N1CCN(c2ncccn2)CC1,4,5,/,8,4,3.5,4579
CCCCn1nc2cc(C(=O)NCc3ccc(OC)cc3)ccc2c1OCC,/,-10,25,/,/,/,3910
COCc1ccc(C(=O)OC(C)C(=O)Nc2c(C)n(C)n(-c3ccccc3)c2=O)cc1 (configuration not stated),-4,-4,/,-6,4,-0.4,3736
CCOC(=O)c1c(C)n(C)c2ccc(OC(=O)c3ccc([N+](=O)[O-])cc3)cc12,7,-9,-8,4,-14,4.5,2508
COCCCNC(=O)c1cc(OC)c(OC)c(OC)c1,-3,-22,-3,/,/,-2.3,2851
C=CCN1C(=O)NC(=O)/C(=C\c2ccc(-c3ccccc3[N+](=O)[O-])o2)C1=O,5,8,11,-6,7,2.3,1907
CCCCOc1ccc(S(=O)(=O)NNC(=O)c2cc3ccccc3o2)cc1,-7,-8,6,6,2,8.1,2419
Cc1ccc(C(=O)N2CCC3(CC2)Oc2ccc(Cl)cc2C(=O)C32CC(c3cccnc3)=NO2)s1 (configuration not stated),6,0,5,-8,4,1.5,3840
COc1ccc(CNC(=O)c2ccc(N3CCOCC3)c([N+](=O)[O-])c2)cc1,8,-13,0,8,2,-3.0,2545
c1csc(-c2cn3c(n2)SCC3)c1,-6,-31,-2,12,8,9.3,2986
Cc1cc(C)cc(N(CC(=O)NC2CCCC2)C(=O)CCC(=O)Nc2nc(C)cs2)c1,8,-27,-13,15,11,1.1,3677
COc1ccccc1NS(=O)(=O)c1cccc(C(=O)NCc2ccccn2)c1,5,-9,7,5,7,-1.3,6896
COC(=O)COc1nsnc1N1CCOCC1,-3,-25,3,-5,1,-2.3,24961*
COc1ccc(NC(=O)CSc2nnc(CNC(=O)c3cccs3)o2)c(OC)c1,8,-23,4,1,2,2.6,5650
CCOC(=O)C1CCN(C(=O)CCS(=O)(=O)c2ccc3c(c2)CCN3C(=O)CC)CC1,-7,-8,-10,-6,7,-2.6,1981
CCC(=O)Nc1cccc(C2=NOC3(C2)C[C@@H](C(N)=O)N(C(=O)c2cc([N+](=O)[O-])cc([N+](=O)[O-])c2C)C3)c1 (some centres not stated),/,-10,-2,/,/,/,3688
O=C(/C=C/c1ccccc1)N/C(=C/c1ccccc1)C(=O)N1CCOCC1,/,-63,-6,/,/,/,2089
Cc1cccc(-c2noc(-c3cc4ccccc4oc3=O)n2)c1,20,-54,-9,10,3,18,2588
Cc1[nH]c2ccccc2c1C(=O)CN1C(=O)NC2(CCCCCC2)C1=O,-3,-10,/,11,5,5.2,3424
CCN(CC)C(=O)COC(=O)c1cc(-c2ccco2)nc2ccccc12,0,2,23,6,2,3.6,4424

# An unsorted share of the library (roughly 3.9% active in at least one column).
